# Anthrax LT inh – qHTS Assay for Anthrax Lethal Toxin Internalization; Cells, anthrax lethal toxin internalization, FRET ratio (460/530); Potency, µM (top dose mostly 40 µM), for the others: at the top dose activity change, negative = inhibition, usual class: inhibitors; hit rate 0.67% among 70,000; active = well fitted falling ratio curve with the 530 nm signal flat; inconclusive = other ratio curves, or a change in one channel alone; inactive = flat curves in the ratio and both channels; the % refers to the ratio; further: on the % scale 0 is the no-effect control and ±100 the full control effect; nearly all actives have a fitted effect of over 50% in size; tested in ME-180 cells; beta-lactamase reporter
# Prx2 Sm inh – Schistosoma Mansoni Peroxiredoxins (Prx2); hit rate 0.07% among 65,000; Potency, µM; Schistosoma mansoni peroxiredoxin 2 (Prx2); S. mansoni Prx2 activity coupled to TGR/GSH (TGR is thioredoxin glutathione reductase), NADPH fluorescence loss, qHTS; some inactives read as strong as hits; active means full or partial inhibition curve with a strong effect at the top dose; inconclusive means weaker partial or single-point curve; inactive means no accepted curve; further: series up to 57 µM; many of its hits are not listed in these tables
#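 Prx2 activity was followed as the loss of NADPH fluorescence (ex 365/em 450 nm), read every 30 sec for 8 min after H2O2 start. The enzyme mix (50 nM Prx2, 25 nM TGR, GSH, NADPH; pH 7.4 phosphate buffer) was incubated with compound for 15 min at room temperature first.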
# * hit, by the source's call; ? = inconclusive; · = no result given; & = joins results of further samples; [ ] = another dose, or the depositor's remark. Potency means the concentration at half of the fitted maximal effect.
SMILES,Anthrax LT inh,Prx2 Sm inh
CCOc1ccc(OCC)c(NC(=O)C2CCN(c3nn4c(=O)cc(C)nc4s3)CC2)c1,-2%,>57
CCOC(=O)Cc1csc(/C(=N/O)C(N)=O)n1,7%,>57
Oc1cnc2ccccc2c1CN1CCOCC1,-9%,>57
N#Cc1cc2ccccc2nc1SCc1ccccn1,?,>57
O=C(CSc1nnc(NC(=O)c2ccco2)s1)NC1CCCC1,7%,>57
CCc1ccccc1NC(=O)N1C2CCCC1CC(NC(=O)C(C)(C)C)C2 (configuration not stated),-8%,>57
Nc1nc(Cl)nc2c1ncn2[C@@H]1O[C@@H](CO)[C@@H](O)[C@H]1O,?,>57
O=C(NC1CCCC1)c1ccc(CS(=O)(=O)c2ccc(Br)cc2)o1,-26%,>57
CC(C)Cn1c(SC(C)C(=O)Nc2ccc3c(c2)OCCO3)nc2ccccc2c1=O (configuration not stated),?,>57
CC(C)c1nc(-c2ccccn2)no1,-10%,>57

# 4 structures already listed, ordered by formula weight, low to high:
SMILES,Anthrax LT inh,Prx2 Sm inh
O=C(CSc1nnc(NC(=O)c2ccco2)s1)NC1CCCC1,7%,>57
CCc1ccccc1NC(=O)N1C2CCCC1CC(NC(=O)C(C)(C)C)C2 (configuration not stated),-8%,>57
O=C(NC1CCCC1)c1ccc(CS(=O)(=O)c2ccc(Br)cc2)o1,-26%,>57
CC(C)Cn1c(SC(C)C(=O)Nc2ccc3c(c2)OCCO3)nc2ccccc2c1=O (configuration not stated),?,>57

# (next part)
SMILES,Anthrax LT inh,Prx2 Sm inh
CCOc1ccc(N(CC(=O)O)S(=O)(=O)c2cccnc2)cc1,2%,>57
O=C(O)CCc1ccc(-c2ccc(Br)cc2)o1,22%,>57
O=c1c(-c2ccccc2)nc2cnc(N3CCOCC3)nc2n1C1CC1,?,>57
Clc1ccccc1C(c1ccccc1)(c1ccccc1)n1ccnc1,?,>57&>57
CCCCC(CC)Cn1c2nc3ccccc3nc2c2c(=N)oc(C)nc21 (configuration not stated),4%,>57
CCOc1ccc(NC2CCN(C(C)=O)CC2)cc1,-11%,>57
COc1ccccc1CN(Cc1nc2ccccc2c(=O)[nH]1)C(=O)Nc1ccccc1,-3%,>57
Cc1ccccc1OC(C)C(=O)NC1CCCC1 (configuration not stated),-15%,>57
CC1Cc2ccccc2N1C(=O)CCS(=O)(=O)c1cccc2nonc12 (configuration not stated),0%,>57
CN(Cc1ccccc1)C(=O)Nc1ccccc1,-6%,>57
O=S(=O)(O)n1ccnc1 (tested in a mixture with another compound),0%[8 µM],>57
CN1C(=O)CSc2ccc(NC(=O)NCCC3=CCCCC3)cc21,-4%,>57
COc1ccc(N2CCN(S(=O)(=O)c3ccc(Br)s3)CC2)cc1,?,>57
COc1ccccc1C(=O)N1CCN(S(=O)(=O)Cc2ccccc2)CC1,5%,>57
COC(=O)Cc1n[nH]c(=S)[nH]c1=O,11%,>57
COCCn1c(SCC(=O)N2CCCC2)nnc1-c1ccoc1C,0%,>57
Clc1ccc(C2=Nn3c(nnc3-c3n[nH]c4c3CCC4)SC2)cc1,·,>57
O=C(Nc1ccc(O)cc1C(=O)O)c1cccc(Br)c1,-3%,>57
O=C(Cn1c2c(c(-c3ccccc3)cc1=O)CCCC2)N1CCCCCC1,?,·
CCc1nnc(NC(=O)CSc2ncc(-c3ccccc3)n2CC)s1,?,>57
COc1ccccc1CNCCCCCCNCCCCCCCCNCCCCCCNCc1ccccc1OC,?,>57
Clc1ccc(-c2nnc(N3CCCC3)nn2)cc1,·,>57
COC(=O)c1c(C(=O)OC)c2oc3ccccc3n2c1Cl,-4%,>57
Cn1c(C(O)c2ccc3c(c2)OCO3)nc2ccccc21 (configuration not stated),3%,>57
CCOC(=O)N1CCN(S(=O)(=O)c2cccc3nsnc23)CC1,3%,>57
CCOC(=O)OCC1OC(c2ccccc2)C=CC1Oc1cccc(N(C)C)c1 (configuration not stated),-7%[8 µM],·
CN(C)c1ncc2nc(-c3ccc(F)cc3)c(=O)n(CCC#N)c2n1,-6%,>57
CO[C@@H]1COC(=O)CC=C[C@@H](C)[C@@H]2C=C[C@H](O)[C@@H](COC(=O)[C@H](C)NC(=O)CC=C[C@H]1C)O2,0%[8 µM],·
CSc1nsc(SC)c1NC(=O)N1CCCC1,29%,>57
COc1ccc(C2C(C(=O)N3CC(C)CC(C)C3)c3ccccc3C(=O)N2C)cc1 (configuration not stated),17%,>57

# Single records (already shown).
# `O=C(CSc1nnc(NC(=O)c2ccco2)s1)NC1CCCC1` reads Anthrax LT inh = 7%; Prx2 Sm inh = >57
# `CC(C)Cn1c(SC(C)C(=O)Nc2ccc3c(c2)OCCO3)nc2ccccc2c1=O` (configuration not stated) reads Anthrax LT inh = ?; Prx2 Sm inh = >57
# `CCOC(=O)OCC1OC(c2ccccc2)C=CC1Oc1cccc(N(C)C)c1` (configuration not stated) reads Anthrax LT inh = -7%[8 µM]; Prx2 Sm inh = ·

# (continued)
SMILES,Anthrax LT inh,Prx2 Sm inh
CC1=C(/C=C/C(C)=C/C=C/C(C)=C/CO)C(C)(C)CCC1,2%,·
OC[C@@H]1CCC[C@H](n2cnc3c(=S)nc[nH]c32)O1,2%[8 µM],>57
CCC1CCCCN1CCCNC(=O)C1CCN(S(=O)(=O)N2CCCCC2)CC1 (configuration not stated),?,>57
NC(=O)c1cnn2c(C(F)(F)F)cc(-c3ccccc3)nc12,2%,>57
CCSc1nnc(NC(=O)CSc2nccn2-c2cccc(C)c2)s1,-6%,>57
CCOC(=O)C1CCCN(C(=O)Cn2ncc3c(=O)oc4ccc(C)cc4c32)C1 (configuration not stated),0%,>57
C=C(C)n1c(=O)[nH]c2ccccc21,·,>57
C/C=C1/C(=O)C[C@H]2[C@@H]3CCC4=CC(=O)CC[C@]4(C)[C@H]3CC[C@]12C,?,·
CCCCCC(=O)N(O)C1CC(=O)N(c2ccccc2)C1=O (configuration not stated),14%,>57
NCc1ccc(-c2nc3ccccc3o2)cc1,-1%,>57
Cc1cc(C)cc(NC(=O)CSc2nnc(-c3ccc(S(=O)(=O)N4CCCC4)cc3)o2)c1,-11%,>57
CCOC(=O)N1CCC(N2Cc3cccc(C(=O)O)c3C2=O)CC1,-1%,>57
Cc1cc(Cl)c(S(=O)(=O)N2CCCCCC2)cc1OCC(N)=O,7%,>57
Cn1c(=O)n(C)c2cc(C(N)=O)ccc21,0%,>57
CC(C)N1C(=O)CCC1C(=O)NCCc1ccccc1 (configuration not stated),1%,>57
Cc1ccc(CNn2cnnc2SCC(=O)NC(C)(C)C)cc1,2%,>57
COc1ccc(C(=O)N2CCC[C@@]3(CCN(C(=O)Nc4ccccc4)C3)C2)cc1,?,>57
CNCCC=C1c2ccccc2C=Cc2ccccc21,2%[3.58 µM],>57
CSc1nc2ccc(NC(=O)C3CCCO3)cc2s1 (configuration not stated),12%,>57
COc1cc(NC(=O)CCN2CCN(c3ccccc3F)CC2)cc(OC)c1,-20%,>57
CCCc1ncc(C(O)c2cccc(OC)c2OC)n1C (configuration not stated),3%,·
c1ccc(OCCOc2ccccc2-c2nnco2)cc1,-5%,>57
COc1ccc(C(=O)N2CCN(Cc3ccccc3C)CC2)cc1OC,4%,>57
COc1ccc(-c2nc3c(c(=O)n(C)c(=O)n3C)n2CC2CC(c3ccccc3)=NO2)cc1OC (configuration not stated),-8%,>57
O=C(CCC(=O)N(c1ccccc1)C(C(=O)NC1CCCC1)c1ccncc1)Nc1cccnc1 (configuration not stated),-3%,>57
O=C(c1cccc(F)c1)N1CCC2(CCCN(c3ccncc3)C2)CC1,?,>57
Cn1nnc2cc(C(=O)N3CCSCC3)ccc21,5%,>57
O=C(O)CN(Cc1ccco1)S(=O)(=O)c1ccc(F)cc1,0%,>57
Cc1csc(NC(=O)CSc2nncn2C)n1,?,>57
Cc1ccc2c(CN3CCN(CCO)CC3)cc(=O)oc2c1,3%,>57
CC(C)C(NC(=O)CN1C(=O)c2ccccc2S1(=O)=O)C(C)C,-1%,>57
c1ccc(-c2nc(NC3CC3)nc(-n3ccnc3)n2)cc1,15%,>57
Cc1cccc(OCc2nnc(SCC(=O)N3CCCC3)n2C)c1,6%,>57
CCOC(=O)C1CCN(C=Nc2cc(C)on2)CC1,-6%,>57
O=C(CSc1nnc(-c2cccs2)n1-c1ccccc1)Nc1ccccc1,-17%,>57
Cc1cccc(N2CCN(C(=O)Cn3cccc3)CC2)c1C,-12%,>57
COCCOC(=O)C1=C(C)NC(=O)NC1c1cn(-c2ccccc2)nc1-c1cccs1 (configuration not stated),-1%,>57
Cc1[nH]n2c(=O)c3c(nc2c1-c1ccccc1)CCCC3,?,>57
COc1ccc(-c2nnc(-c3ccc(Br)o3)o2)cc1OC,-12%,>57
O=S(=O)(NCC(c1cccnc1)N1CCN(c2ccccc2)CC1)c1cccs1 (configuration not stated),?,>57
N#Cc1c[nH]n2c(=O)cc(Cc3ccccc3)nc12,1%,>57
Cc1[nH]n2c(=O)c3c(nc2c1-c1ccc(Cl)cc1)CCC3,10%,>57
NCCCCCCCCCCNS(=O)(=O)c1cccc2c(Cl)cccc12,?,>57
O=S(=O)(NCc1ccccc1)c1cnc[nH]1,8%,>57
CCN(CC)CCN1C(=O)C(=O)/C(=C(/O)c2cnn(-c3ccccc3)c2C)C1c1cccnc1 (configuration not stated),5%,>57
CCC(C)(C)n1nnnc1CN(Cc1cccs1)Cc1cc2cc(OC)ccc2[nH]c1=O,2%,>57
Cc1ccc(-c2nc3ncccn3c2NC(=O)C2CC2)cc1,9%,>57
CCC(C)C(NC(=O)c1ccccc1NC(=O)c1ccco1)C(=O)O (configuration not stated),10%,>57
O=C1C=CC(=Nc2cccc3c(N=C4C=CC(=O)O4)cccc23)O1,0%[8 µM],>57
CCOc1cc(CNn2cnnc2)ccc1OCC(=O)NC1CCCCC1,2%,>57

# Two entries from above, with values under each structure.
# The line under a structure holds: Anthrax LT inh	Prx2 Sm inh
- Cc1ccc(-c2nc3ncccn3c2NC(=O)C2CC2)cc1
    9%	>57
- CCC(C)C(NC(=O)c1ccccc1NC(=O)c1ccco1)C(=O)O (configuration not stated)
    10%	>57

# Continued:
SMILES,Anthrax LT inh,Prx2 Sm inh
NC(=O)CNCCC(c1ccccc1)c1ccccc1,-11%&-18%,>57
O=C(C1CCC1)N1CCc2cc(S(=O)(=O)N3CCc4ccccc4C3)ccc21,0%,>57
N[C@H](C(=O)O)[C@@H]1C[C@@H]1C(=O)O,-14%&-8%,>57&>57
O=C(NCCN1CCOCC1)c1cc(-c2ccc(Cl)cc2)on1,?,>57
CCN1CCN(c2ncc(C(=O)N3CCCc4ccccc43)c3ccccc23)CC1,-2%,>57
COc1ccc(N2CCN(C(c3cccs3)C(C)NC(=O)c3ccco3)CC2)cc1 (configuration not stated),-4%,>57
Cc1onc(-c2ccccc2Cl)c1C(=O)NCCN1CCOCC1,1%,>57
CCOC(=O)CNC(=O)CSc1nnc(Cn2c(=O)sc3ccccc32)n1-c1ccccc1C,?,>57
CCc1nnc(NC(=O)C2CCCN(c3nc(C)cc(C)n3)C2)s1 (configuration not stated),-12%,>57
CCOC(=O)c1cccc(NC(=O)CSc2nnc(-c3ccoc3C)n2CCOC)c1,-4%,>57
COc1cccc(N2CC(C(=O)Nc3ccc(C(=O)OC(C)C)cc3)CC2=O)c1 (configuration not stated),-28%,·
COc1ccc(NC(=O)N(CCC(C)C)C(C)c2ccccn2)c(OC)c1 (configuration not stated),?,>57
CN1CC(=O)NC1=NC(=O)c1cc(F)c(F)cc1Cl,?,>57
Cc1ccc(N(C(C)C(=O)Nc2ccc(S(=O)(=O)N3CCOCC3)cc2)S(C)(=O)=O)cc1 (configuration not stated),1%,>57
CCOC(=O)NC(NC(=O)OCC)C(=O)c1ccc(F)cc1,-5%,>57
Cc1cc(C)c2[nH]c(=O)c(CN(Cc3ccco3)C(=O)C3CCCO3)cc2c1 (configuration not stated),1%,>57
CCSc1sccc1C1C(C#N)=C(N)N(c2cccnc2)C2=C1C(=O)CC(C)(C)C2 (configuration not stated),23%,·
Nc1nc(CSc2ccccn2)nc(Nc2ccccc2)n1,-16%,>57
CC1CCN(S(=O)(=O)c2ccc(NC(=O)CSc3nnnn3C)cc2)CC1,-9%,>57
CS(=O)(=O)N1CCN(c2ncccn2)CC1,0%,>57
CC(=O)N(CC(=O)Nc1nn(-c2ccccc2)nc1C(N)=O)Cc1ccccc1,-3%,>57
Nc1ncnc2c1nc(Br)n2[C@H]1O[C@H]2COP(=O)(O)O[C@H]2[C@@H]1O,?,>57
CC1(O)c2ccccc2C(=O)N1Cc1ccccc1 (configuration not stated),-5%,>57
CCN(CC)C(=O)CSc1nc(O)cc(=O)n1CC,-5%,·
O=C(c1ccco1)N1CCN(C(=O)c2ccc(COc3ccc(F)cc3)o2)CC1,-4%,>57
O=C(c1csnn1)N1CCC2(CC1)CN(Cc1cc(C(F)(F)F)cc(C(F)(F)F)c1)C2,19%,>57
CC(=O)Nc1c(I)c(C(=O)N[C@H]2[C@@H](O)[C@H](O)[C@H](CO)O[C@@H]2O)c(I)c(N(C)C(C)=O)c1I,2%[3.58 µM],>57
c1coc(Cn2c(SCc3nc4ccccc4[nH]3)nnc2-c2cnccn2)c1,?,>57
COc1ccc(-c2nnc3sc(-c4ccccn4)nn23)cc1,0%,>57
C=C(C)[C@H]1[C@H]2OC(=O)[C@@H]1[C@]1(O)C[C@H]3O[C@]34C(=O)O[C@H]2[C@@]14C,0%[3.58 µM],>57
COc1ccc(Cl)cc1NC(=O)c1ocnc1C,-10%,>57

# Screening data from PubChem.

# Only part of the results is shown; count on the stated rates, not on these rows.
